RE007 growth inh: qHTS Assay for Inhibitors of the HIV-1 protein Vpr | S. pombe RE007 Vpr strain, BacTiter-Glo ATP luminescence, 24 h; control for the full effect not named in the record | Potency, µM (titrated, usually from 92.2 µM), for the others: at the top dose activity change, negative = less growth | 360,000 tested, 0.21% active | AID 651644, 2012; active = well fitted falling curve with a large enough effect; inconclusive = small, poorly fitted or top-dose-only effect; inactive = no such curve, though single readings can be large or run the other way;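 also: % is scaled to controls: 0 for no effect and ±100 for the full control effect; nearly all actives have a fitted effect of over 50% in size; the assay follows cell death caused by Vpr and the record does not say whether a fall means rescue or toxicity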
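Fission yeast RE007 carrying one integrated HIV-1 vpr copy, seeded at OD 0.01 in PMG+AL medium with 23 nL pinned compound. Grown 24 h at 30 degrees; viability read by BacTiter-Glo luminescence after 5 min.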
SARS PLpro yeast: qHTS of Yeast-based Assay for SARS-CoV PLP; S. cerevisiae expressing SARS-CoV PLpro, growth rescue; control for the full effect not named in the record; Potency, µM (top dose mostly 32.9 µM), for the others: top-dose activity, positive = growth rescue; 330,000 tested, 0.19% active; also: 0% is about no effect; nearly all actives have a fitted effect of over 55% in size; growth read by luminescence after 48 h
NS1 inh: qHTS Assay for Inhibitors of Influenza NS1 Protein Function; S. cerevisiae slowed by influenza A NS1, growth recovery by OD600; Potency, µM (highest dose often 46.1 µM), without a hit: top-dose activity, positive = more growth; 270,000 tested, 0.4% active; AID 2326, 2010; also: actives are rising curves; nearly all actives have a fitted effect of over 50% in size
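Growth recovery, yeast-based: influenza A NS1 expressed in S. cerevisiae causes slow growth, and suppressors are detected by OD600. The parent strain without NS1 is used as positive control.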
MARV entry inh: qHTS for inhibitors of binding or entry into cells for Marburg Virus; Marburg virus pseudotyped entry inhibition, cell reporter; control for the full effect not named in the record; about a third of the inactives were read at about 46 µM; Potency, µM (highest dose often 37.8 µM), without a hit: at the top dose activity change, negative = inhibition, hits mostly inhibitors; 300,000 tested, 1.8% active; active = well fitted inhibition curve with a large enough effect; inconclusive = small, poorly fitted or top-dose-only effect, or effect the other way; inactive = flat fitted curve, though single readings scatter; tested in HEK293 cells; about a fifth of its hits are not listed in these tables; also: % is scaled to controls: 0 for no effect and ±100 for the full control effect; luciferase read-out
Cruzain noTriton: qHTS Assay for Promiscuous and Specific Inhibitors of Cruzain (without detergent); purified cruzain, Z-FR-AMC fluorescence, no detergent; 200,000 tested, 2.3% active; AID 1476, 2009; Cruzipain (Trypanosoma cruzi), P25779; Potency, µM, for inactives: max response, negative = inhibition, actives largely listed as inhibitors; active = well fitted curve in the direction sought with a large enough effect; inconclusive = small, poorly fitted or top-dose-only effect, or another doubt; inactive = no such curve, though single readings can be large; an effect the other way counts as inactive or inconclusive;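 also: plate controls were enzyme without inhibitor for no effect and buffer without enzyme for full effect; nearly all actives have a fitted effect of over 40% in size; top concentration of the series not given in the record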
Target sequence (P25779 123-467 limits assumed): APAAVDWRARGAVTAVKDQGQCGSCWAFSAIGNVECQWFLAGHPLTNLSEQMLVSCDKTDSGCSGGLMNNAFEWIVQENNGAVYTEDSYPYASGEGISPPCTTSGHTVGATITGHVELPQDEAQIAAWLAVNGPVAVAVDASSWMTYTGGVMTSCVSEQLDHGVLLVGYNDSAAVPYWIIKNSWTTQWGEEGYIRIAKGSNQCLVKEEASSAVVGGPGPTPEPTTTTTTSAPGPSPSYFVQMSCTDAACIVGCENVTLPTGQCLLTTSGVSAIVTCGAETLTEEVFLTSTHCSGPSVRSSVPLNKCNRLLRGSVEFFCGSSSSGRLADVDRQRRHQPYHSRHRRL
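Purified cruzain at 1.5 nM, pre-incubated 15 min with compound at room temperature in 100 mM sodium acetate pH 5.5, 5 mM DTT, 0.00005% Triton X-100. Reaction started with 2 uM Z-FR-AMC; AMC fluorescence increase over 60 s gives rate.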
Cruzain inh Det: qHTS Assay for Promiscuous and Specific Inhibitors of Cruzain (with detergent) | Cruzipain (Trypanosoma cruzi), P25779 | purified cruzain, Z-FR-AMC fluorescence, 0.01% Triton | Potency, µM, for inactives: max response, negative = inhibition, usual class: inhibitors | 200,000 tested, 0.43% active | AID 1478, 2009; active = well fitted curve in the direction sought with a large enough effect; inconclusive = small, poorly fitted or top-dose-only effect, or another doubt; inactive = no such curve, though single readings can be large; an effect the other way counts as inactive or inconclusive;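 also: plate controls were neutral wells for no effect and buffer without enzyme for full effect; nearly all actives have a fitted effect of over 40% in size; top concentration of the series not given in the record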
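Compounds were screened in titration against cruzain (1.5 nM) with 0.01% Triton X-100 to counter colloidal aggregation. Activity was the AMC fluorescence increase over 60 s after adding 2 uM Z-FR-AMC at pH 5.5.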
2A StopGo: High Throughput Screening for Foot and Mouth Disease Virus Antivirals. human cells with a luciferase reporter of 2A StopGo recoding; control for the full effect not named in the record. Potency, µM (titrated, usually from 57.9 µM), inactives show top-dose signal change, negative = less light. 410,000 tested, 1.2% active; active = well fitted falling curve with a large enough effect; inconclusive = small, poorly fitted or top-dose-only effect; inactive = no such curve, though single readings can be large or run the other way; tested in HEK293T cells; also: % is scaled to controls: 0 for no effect and ±100 for the full control effect; nearly all actives have a fitted effect of over 45% in size; luciferase light after 4 h
LASV entry inh: qHTS for Inhibitors of binding or entry into cells for Lassa Virus; Potency, µM (series often up to 37.9 µM), without a hit: at the highest dose activity change, negative = inhibition, hits mostly inhibitors; Lassa virus pseudotype entry inhibition, cell reporter; control for the full effect not named in the record; 300,000 tested, 1.2% active; AID 540256, 2011; active means well fitted inhibition curve with a large enough effect; inconclusive means small, poorly fitted or top-dose-only effect, or effect the other way; inactive means flat fitted curve, though single readings scatter; tested in HEK293 cells; also: % is scaled to controls: 0 for no effect and ±100 for the full control effect; nearly all actives have a fitted effect of over 50% in size; luciferase read-out
* marks the source's active call; other numbers are inactive results; ? = inconclusive; · = not tested or not shown; & = joins results of further samples; [ ] = another dose, or the depositor's remark. Unless noted, calls follow the shape of the dose curve; as a rule, active means well fitted rising curve with a large enough effect; inconclusive means small, poorly fitted or top-dose-only effect; inactive means no such curve, though single readings can be large or run the other way. Potency is read from the fitted curve at half-maximal effect.

SMILES	RE007 growth inh	SARS PLpro yeast	NS1 inh	MARV entry inh	Cruzain noTriton	Cruzain inh Det	2A StopGo	LASV entry inh
COc1ccc(C2c3cc(OC)c(OC)cc3CC3C(=O)OCC32)cc1OC (stereo unspecified)	1%	·	·	?	·	·	7%	-4%[46.1 µM]
O=C(NCCN1CCCCC1)c1cc(Cl)ccc1Cl	-6%	1%	-5%	7%	·	·	-9%	17%
Clc1ccc(-c2nc3ncccn3c2Nc2ccc3c(c2)OCCO3)cc1	1%	?	20%	?	-14%&11%	0.0%&1.6%	13%&21%	0%[46.1 µM]
COc1ccc(Cl)cc1NC(=O)CN(C)C(=O)c1cc(-c2cccs2)nn1-c1ccccc1	5%	2%	·	?	·	·	-26%	?
O=C(CSc1nc2ccccc2c(=O)n1NC(=O)c1ccccc1)c1ccccc1	11%	-8%	25%	-1%	?	-1.0%	5%	?
CCC(=O)N1c2ccc(S(=O)(=O)N(CCO)Cc3ccccc3)cc2CC1C (stereo unspecified)	22%	-4%	-6%	?	9%	-0.7%	?	?
Cc1sc2ncnc(SCC(=O)N3CCCC(C(N)=O)C3)c2c1C (stereo unspecified)	6%	-2%	·	0%[46.1 µM]	·	·	0%	4%
C#CCNc1c(C)c(C)nc2ncnn12	-7%	-3%	-7%	-3%	-8%	3.1%	20%	23%
COc1cccc(NC(=O)C(=O)N/N=C/c2cc(C)n(-c3ccc(Cl)c(Cl)c3)c2C)c1	5%	-6%	3%	-18%	16µM*	-0.2%	·	-23%
CC1CCN(S(=O)(=O)c2ccc(NC(=S)NC(=O)c3ccc(Cl)cc3)cc2)CC1	-1%	0%	0%	?	?	1.9%	-4%	7%
CCCOc1ccc(-c2nc[nH]c2[N+](=O)[O-])cc1	16%	1%	·	-12%[46.1 µM]	·	·	-9%	?
Cc1csc(NC(=O)Cc2ccc(Br)cc2)n1	4%	-10%	-3%	-17%	·	·	9%	14%
O=C(O)/C=C/C(=O)NCc1cn(-c2ccccc2)nc1-c1cccc(Br)c1	-3%	0%	·	-22%[46.1 µM]	·	·	10%	16%
O=C(Nc1ccc2c(c1)C(=O)NC2=O)c1cc(Cl)ccc1Cl	-11%	4%	-11%	·	·	·	-15%	·
COc1ccc(C(c2sc3nc(C)nn3c2O)N2CC(C)OC(C)C2)cc1OC (stereo unspecified)	-5%	14%	-46%	·	4%	-4.9%	-12%	·
CC(C)Nc1nc(NC(C)(C)C)nc(Oc2ccc(=O)n(C)n2)n1	9%	1%	4%	·	·	·	17%	·
CC(C)CC(NC(=O)C(NC(=O)C(Cc1ccc(OCc2ccccc2)cc1)NC(=O)OC(C)(C)C)C(C)C)C(N)=O (stereo unspecified)	5%	0%	?	?	9%	-1.1%	-21%	-2%
Cc1cc(C(=O)Cn2cnc3cc(F)ccc3c2=O)c(C)n1C1CC1	-1%	13%	·	?	·	·	27%	18%[46.1 µM]
CC(C)=CC(=O)OCC(=O)Nc1ncc(Cl)c(C)c1Cl	1%	7%	11%	5%	-16%	-4.6%	16%	-10%
O=C(CSC1=Nc2ccccc2C2CC=NN12)Nc1ccc2c(c1)OCO2 (stereo unspecified)	5%	-3%	·	?	·	·	20µM*	-2%[46.1 µM]
CCOc1cccc2sc(N(CCN(C)C)C(=O)CCS(=O)(=O)c3ccccc3)nc12	10%	·	·	?	·	·	-16%	3%
CCOc1cccc(C(=O)N/N=C/c2ccoc2)c1	-15%	-2%	-3%	11%[46.1 µM]	·	·	41%[activator]	12%[46.1 µM]
CC(C)(C)NC(=O)c1nn2c(C(F)(F)F)cc(-c3ccccc3)nc2c1Br	1%	4%	12%	·	·	·	-11%	·
COc1cc(-c2cc(-c3nnco3)c3ccccc3n2)cc(OC)c1OC	-5%	10%	·	?	·	·	?	?
CCOC(=O)c1cccc(NC(=O)NC2COc3ccccc3C2)c1 (stereo unspecified)	·	·	·	·	9%	-4.4%	-23%	-12%[46.1 µM]
Cc1ccc(Oc2coc3cc(OC(=O)c4cccs4)ccc3c2=O)cc1	-14%	-6%	-8%	?	?	-4.0%	50%[activator]	-3%
CSc1ncc(CN2CCc3c([nH]c4ccccc34)C2c2cccc(O)c2)cn1 (stereo unspecified)	-9%	1%	-4%	·	·	·	?	·
CCCCNc1c2c3c(cccc3n(C)c1=O)C(=O)c1ccccc1-2	1%	1%	3%	?	-11%	-10.0%	32µM*	-28%
C=CCNC(=O)c1cc2nc(C3CC3)cc(C(F)F)n2n1	10%	8%	-5%	11%	-2%	4.5%	-2%	-4%
O=C(Nc1nc2c(s1)CCCC2)c1cc(-c2ccncc2)nc2ccccc12	-1%	-7%	9%	?	?	2.0%	-12%	20%
CCOc1cc(C(=O)CCC(=O)OCC(=O)N2c3ccccc3NC(=O)C2(C)C)ccc1O	-2%	7%	-2%	-17%	-6%	-1.2%	?	5%
Cc1ccccc1NCC(=O)N/N=C\C=C\c1cccc([N+](=O)[O-])c1	-26%	-16%	-4%	-13%	?	-9.2%	-2%	-4%
O=C(Cc1ccccc1)NC(NCCc1ccccc1)C(Cl)(Cl)Cl (stereo unspecified)	8%	1%	-5%	-12%	0%	-0.3%	?	?
Clc1ccccc1OCc1nc(-c2ccccn2)no1	·	-13%	-6%	·	-6%	2.2%	44%[activator]	·
COc1ccc(/C=C2\SC(=S)N(CCCC(=O)N3CCCCC3CCO)C2=O)cc1 (stereo unspecified)	8%	-4%	-34%	·	·	·	-16%	·
COc1cccc(C(=O)CN2C(=O)C(C)(C)Oc3ccc(C(=O)N4CCCCCC4)cc32)c1	-3%	6%	-76%	-9%	?	-6.8%	17%	20%
COc1cc(OC)c(C(=O)/C=C/c2ccccc2)c(O)c1O	8%	-7%	-73%	·	·	·	25µM*	·
CCOc1ccc(NC(=O)CSc2nnc3scc(-c4ccccc4)n23)cc1	·	·	·	5%[46.1 µM]	20%	-3.6%	13%	-4%[46.1 µM]
CC(=O)Nc1sc(C)c(C)c1C(=O)OCC(=O)N(C)c1c(N)n(Cc2ccccc2)c(=O)[nH]c1=O	0%	-4%	·	-16%	·	·	-26%	37%[46.1 µM]
CCOc1ccccc1Nc1nc(-c2sc(C)nc2C)cs1	-20%	3%	6%	?	·	·	4%	-5%[46.1 µM]
COCCOC(=O)c1ccc(NC(=O)COc2ccc([N+](=O)[O-])cc2)cc1	-5%	-3%	·	-6%[46.1 µM]	·	·	?	-5%
CCSc1ncc(Cl)c(C(=O)Nc2cccc(Cl)c2)n1	·	·	·	?	-14%	-7.3%	-18%	4%[46.1 µM]
Cc1nnc2c(SC(C)C)nc3ccccc3n12	-2%	6%	-16%	·	·	·	-1%	·
C=CCN1C(=O)C(CCCC)NC1=S (stereo unspecified)	7%	27%	13%	11%	-7%	1.6%	-16%	18%
CC(C)c1nnc(NC(=O)C2CCCCC2)s1	5%	5%	?	·	-2%	1.0%	29%	·
COC(=O)c1ccc2c(=O)n(CCN3CCOCC3)c(SCC(=O)c3ccccc3)nc2c1	3%	0%	6%&5%	·	·	·	2%	·
Cn1c2ccccc2c2n[nH]c(=S)nc21	28%	2%	2%	6%	·	·	-22%	10%
CN(C)c1ccc(C(=O)NC2CCCc3ccccc32)cc1 (stereo unspecified)	-11%	-1%	-10%	-27%[46.1 µM]	·	·	33%[activator]	-1%[46.1 µM]
O=C(CSc1ccc(Cl)cc1)OCC(=O)N1CCN(c2ccccc2)CC1	-4%	-1%	·	12%	·	·	0%	8%[46.1 µM]
COc1ccc2c(C)c(CC(=O)N3C[C@H]4C[C@@H](C3)c3cccc(=O)n3C4)c(=O)oc2c1C	-15%	0%	-7%	·	·	·	-10%	·
COc1ccccc1N(C)S(=O)(=O)c1ccc(C(=O)OCC(=O)Nc2ccccc2F)cc1	-1%	-7%	-33%	1%[46.1 µM]	·	·	9%	-13%[46.1 µM]
CC1(C)CC(=O)N(CC(=O)N2CCN(c3ncccn3)CC2)c2ccccc2S1(=O)=O	-7%	6%	-6%	0%	12%	4.2%	0%	·
Cc1cc(NS(=O)(=O)c2ccc(NC(=O)Cc3ccc(Cl)c(Cl)c3)cc2)no1	-4%	-2%	·	0%[46.1 µM]	·	·	-1%	-8%
CC(C(=O)NN=C(c1ccccc1)c1ccccc1)N1CCCC1 (stereo unspecified)	12%	0%	-1%	8%	·	·	-5%	-1%
Cc1cc2nc(-c3cccc(NC(=O)COc4ccc(C(C)C)cc4)c3)oc2cc1C	·	·	·	?	-5%	-0.5%	45%[activator]	46%[46.1 µM]
CCOC(=O)N1CCC(NC(=O)c2cccc3c2C(=O)N(Cc2cccnc2)C3)CC1	0%	5%	-8%	-8%	4%	0.5%	-13%	-14%
COC(=O)c1ccc(Nc2nc(C)nc3c2nnn3Cc2ccccc2)cc1	14%	1%	10%	?	·	·	-6%	?
COc1ccccc1C(=O)NCCC(=O)N(C)CC(=O)Nc1c(Cl)cccc1Cl	-6%	·	·	0%	·	·	-12%	1%
c1ccc(Cc2nnc3n2N=C(c2ccccc2)CS3)cc1	23%	-1%	-7%	-14%[46.1 µM]	·	·	-8%	-7%[46.1 µM]
Cc1cc(Br)ccc1NC(=O)C1CCN(C(=O)c2ccco2)CC1	0%	1%	2%	-4%[46.1 µM]	·	·	-12%	3%
O=[N+]([O-])c1cccc(/C=N/Nc2nc(NCc3ccccc3)nc(N3CCOCC3)n2)c1	1%	-19%	17%	-9%	6%	-3.9%	-4%	7%
CSCCC(NC(=O)c1ccc(Br)cc1)C(=O)O (stereo unspecified)	6%	-2%	7%	-16%[46.1 µM]	·	·	-4%	14%
